High-throughput results: PubChem BioAssay, several laboratories
T cruzi inh = inhibitors of intracellular T. cruzi growth, primary screen, luminescence, NIH3T3 host cells; T. cruzi beta-gal in NIH3T3, 90 h; AID 1885, 2009; 300,000 compounds, 1.4% hits; inhibition, % (concentration not given with the values);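 active = mean inhibition across valid replicates above about 55%, limit read from the data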;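 also: signal also drops with host cell toxicity which is not excluded here; 0% = plate median of DMSO wells and 100% = zero luminescence signal; higher percent means less beta-gal luminescence so fewer parasites; stock transfer was 50 nL into about 50 µL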
UCH37 DUB inh = inhibitors of human UCH37 deubiquitinase, primary screen, biochemical, Ub-AMC cleavage, fluorescence. Ubiquitin carboxyl-terminal hydrolase isozyme L5 (Homo sapiens), Q9Y5K5. purified proteasome/UCH37. inhibition, % (concentration not given with the values). 330,000 compounds, 0.33% hits. AID 588478, 2011;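 active = mean of two replicates above 20%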;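 also: 0% = compound-free wells with enzyme and 100% = wells lacking proteasome; stock transfer was 100 nL into about 20 µL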
Target sequence (Q9Y5K5 whole entry, looked up): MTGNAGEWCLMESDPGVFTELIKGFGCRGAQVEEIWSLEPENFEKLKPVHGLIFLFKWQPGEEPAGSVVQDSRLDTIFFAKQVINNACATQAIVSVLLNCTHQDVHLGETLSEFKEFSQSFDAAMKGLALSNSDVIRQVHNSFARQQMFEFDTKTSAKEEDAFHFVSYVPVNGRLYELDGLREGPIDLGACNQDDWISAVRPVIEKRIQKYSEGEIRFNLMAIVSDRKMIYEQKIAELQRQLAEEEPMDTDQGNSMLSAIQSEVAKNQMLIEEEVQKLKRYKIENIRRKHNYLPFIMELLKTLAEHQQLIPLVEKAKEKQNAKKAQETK
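Reagent: Ub-AMC substrate; assay system: Proteasome-associated human UCH37 deubiquitinase; controls: no-proteasome and no-compound wells; read-out: % inhibition of Ub-AMC cleavage fluorescence; timing: 30 min preincubation with enzyme, 25 min cleavage at room temperature; signal: AMC fluorescence from Ub-AMC cleavage, excitation 355 nm, emission 460 nm; buffer or medium: Tris-HCl pH 7.4 plus ovalbumin, ATP-MgCl2, DTT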
Bfl-1 A1 inh = caspase 3/7 activation in MEF A1-2A-BIM cells, primary screen, A1 inhibitor project, cell-based, luminescence, HTS | Caspase-Glo 3/7 luminescence, 3 h; percent of clofoctol response, vehicle zero | AID 2462, 2010 | caspase activation, % (test concentration not listed) | 330,000 compounds, 0.066% hits;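 active = over half of replicate activation scores above 10%, or exactly half above 10 with the replicate mean above 10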;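 also: wells of about 30 µL received 50 nL stock; many hits fall short of the cut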
FGF22 binding = binders of human FGF22 protein, primary screen, FGF22 synaptogenesis inhibitor project, biophysical, thermal shift, single point; Fibroblast growth factor 22 (Homo sapiens), Q9HCT0; recombinant FGF22 thermal shift, SYPRO orange fluorescence; percent of sucrose octasulfate shift, DMSO zero; calls only at 9.99 µM; 340,000 compounds, 1.5% hits; AID 651658, 2012;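 active = melting point raised past a set limit in the mean and every replicate; three in four hits are not shown here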
Target sequence (Q9HCT0 whole entry, looked up): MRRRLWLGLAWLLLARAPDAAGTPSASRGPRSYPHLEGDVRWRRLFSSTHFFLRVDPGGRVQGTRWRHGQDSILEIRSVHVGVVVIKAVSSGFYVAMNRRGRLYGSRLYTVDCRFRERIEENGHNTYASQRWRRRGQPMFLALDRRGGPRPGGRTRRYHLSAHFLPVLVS
rRNA inh HTS = reduced GFP signal of wild-type E. coli, primary screen, bacterial rRNA inhibitor project, GFP/RFP fluorescence, OD600, single point; E. coli WT GFP vs humanized-ribosome RFP mutants, 24 h; active compounds read low; DMSO median 0, no signal -100; GFP signal change (wild-type ribosome), % (no concentration beside the values); 350,000 compounds, 1.6% hits;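 active = significant combined selectivity score with lowered wild-type GFP, culture density cut under 30%, mutant RFP and density less affected; inactive = any of these conditions unmet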; also: one replicate is shown; some compounds called inactive have numbers as strong as hits
AF4-AF9 inh = inhibitors of AF4 peptide binding to AF9, primary screen, biochemical, AlphaScreen, biotin-AF4 peptide, FLAG-AF9, single point; inhibition, % at 10 µM; AID 651704, 2012; 350,000 compounds, 0.47% hits;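 active = every replicate reaching a set inhibition limit, whatever the replicate mean, cut at about 25% in these data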;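 also: 0% = plate neutral control median and 100% = total signal loss; the record names both 10 and 1 µM as test concentration; the first replicate is given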
Target sequence (P42568 whole entry, looked up): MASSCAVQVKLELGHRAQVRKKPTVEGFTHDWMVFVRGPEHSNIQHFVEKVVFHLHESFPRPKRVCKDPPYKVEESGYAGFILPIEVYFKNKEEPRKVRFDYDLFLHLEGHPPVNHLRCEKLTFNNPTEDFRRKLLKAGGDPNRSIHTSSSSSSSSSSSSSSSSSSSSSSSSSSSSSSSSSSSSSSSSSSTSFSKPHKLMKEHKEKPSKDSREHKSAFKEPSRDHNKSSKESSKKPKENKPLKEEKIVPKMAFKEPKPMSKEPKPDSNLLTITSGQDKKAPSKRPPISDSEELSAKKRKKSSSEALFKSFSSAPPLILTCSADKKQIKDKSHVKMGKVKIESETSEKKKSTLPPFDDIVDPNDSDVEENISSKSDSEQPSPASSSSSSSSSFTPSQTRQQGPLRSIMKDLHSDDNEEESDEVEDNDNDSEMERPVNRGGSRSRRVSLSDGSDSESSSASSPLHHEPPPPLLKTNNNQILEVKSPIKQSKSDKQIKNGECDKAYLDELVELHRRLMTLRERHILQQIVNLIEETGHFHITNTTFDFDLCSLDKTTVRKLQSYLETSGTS
E coli growth = E. coli growth inhibition, primary screen, OD600 | OD600 absorbance (concentration not given with the values) | 330,000 compounds, 0.21% hits | AID 1053175, 2014 | Escherichia coli growth, 23 h; active compounds read low;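 active = OD600 absorbance below the run mean of sample wells minus 3.6 SD, in any replicate, cut at about 0.56 in these data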;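 also: stock transfer was 300 nL into about 60 µL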
Beta cell apopt = inhibitors of cytokine-induced beta cell apoptosis, primary screen, luminescence | INS-1E cytokine-induced death, ATP luminescence, 48 h; percent of positive-control rescue, neutral wells zero | protection from apoptosis, % (no concentration beside the values) | 300,000 compounds, 0.8% hits;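 active = all replicates at 75% or more, or half of them and the mean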;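 also: 0% = cytokine-treated negative control wells and 100% = positive control rescue; higher means more ATP so stronger rescue from cytokine killing; wells of about 40 µL received 100 nL stock; the first replicate is given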
rRNA inh HTS OD600 = further read-out of rRNA inh HTS, marked with its call; OD600 change, %; measured here: OD600 growth;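 optical density of the mix in the first replicate; 0 = DMSO median and -100 = no signal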
rRNA inh HTS RFP = recorded beside rRNA inh HTS, whose call it bears; RFP signal change, %; measured here: RFP humanized mutant strains;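 first replicate; 0 = DMSO median and -100 = no signal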
Numbers without * were called inactive; i = inactive; . = no result given; + = active, no number. A portion of the library, so the mix of outcomes need not match the whole.

nr	SMILES	T cruzi inh	UCH37 DUB inh	Bfl-1 A1 inh	FGF22 binding	rRNA inh HTS	rRNA inh HTS OD600	rRNA inh HTS RFP	AF4-AF9 inh	E coli growth	Beta cell apopt
1	Cc1n[nH]c(C)c1S(=O)(=O)N(C)Cc1ccco1	.	1.5	0.1	i	7	1	1.0	2.2	0.7	6
2	Cc1ccc(N2CCN(S(=O)(=O)N(C)C)CC2)cc1Cl	16	-1.4	0.9	.	.	.	.	.	0.73	2
3	C=CCN(CC=C)CCOc1ccc(OC(C)C)cc1	16	1.0	-0.7	i	-1	1	-1.7	-1.1	0.64	4
4	CC1CCCCC1NC(=O)CSc1nnc(CNC(=O)c2ccccc2)n1C (centres undefined)	6	0.2	2.0	i	18	13	0.8	-0.5	0.71	-6
5	O=C(NCCc1ccccc1)c1cc2ccccc2oc1=O	-13	-3.6	-0.3	i	15	12	4.9	-4.5	0.71	5
6	Cc1ccc(CNC(=O)CCCc2c[nH]c3ccccc23)cc1	4	3.3	1.4	i	-7	-18	3.4	5.7	0.7	-3
7	CCOc1cccc(SCc2noc(C(=O)NCC3CCCO3)c2C(=O)O)c1 (centres undefined)	-5	.	0.2	i	3	5	9.4	0.7	.	-5
8	Cc1c(C(=O)N2CCC(C)CC2)oc2ccc(S(=O)(=O)N3CCC4(CC3)OCCO4)cc12	11	0.7	0.5	i	-4	-7	5.3	1.0	0.61	-8
9	CCOC(=O)N1CCN(c2cc(=O)n(-c3ccc(OCC)cc3)c(=O)[nH]2)CC1	-1	4.2	-0.1	i	9	9	-5.7	3.5	0.72	-1
10	COc1ccc2cc(C)c3nnc(SCC(=O)Nc4nc(-c5ccc(F)cc5)cs4)n3c2c1	9	-2.3	16*	.	.	.	.	.	0.77	-7
11	O=[N+]([O-])c1cc(C(F)(F)F)cc([N+](=O)[O-])c1NCCNC(=S)Nc1ccc(Cl)c(Cl)c1	51	3.3	-0.6	i	-36	-59	3.1	8.5	0.63	.
12	Cc1ccccc1N=C1NC(=O)/C(=C/c2cccn2-c2cccc(C(=O)O)c2)S1	-6	6.7	.	i	9	-3	2.8	-1.9	0.66	.
13	COc1ccccc1C1C(C(=O)NCc2ccccc2)=C(C)Nc2ncnn21 (centres undefined)	-7	-49	1.8	.	.	.	.	.	0.72	-5
14	CCCC(C)NC(=O)COC(=O)c1ccccc1SCC(=O)NC(C)CCC (centres undefined)	4	-2.6	0.8	i	12	7	-1.7	-1.9	0.67	1
15	CCN1/C(=C/C=C2/SC(=Nc3cccc4ncccc34)N(C)C2=O)Sc2ccccc21	.	7.6	.	i	5	2	7.0	-0.5	0.73	.
16	CCn1c(-c2c[nH]c3ccccc23)n[nH]c1=S	-11	6.9	-0.1	i	-20*	-2.9*	-1.0*	8.8	0.7	-5
17	O=C(O)Cc1ccc(S(=O)(=O)N2CCCC2)s1	.	1.2	-0.2	.	12	15	0.8	-2.2	0.67	4
18	CCN1CCN(C(=O)c2cccc(OC3CCN(S(C)(=O)=O)CC3)c2)[C@@H](C)C1=O	-2	0.9	1.0	i	3	8	-1.8	-0.3	0.72	-2
19	Cc1ccc(C)c(C2=NNC(=NCc3ccccc3)SC2)c1	9	5.8	.	i	-4	-3	1.0	0.6	0.72	.
20	O=S(=O)(CCN1CCN(c2ccccc2O)CC1)c1cc(Cl)ccc1Cl	.	3.3	.	i	-5	-7	0.9	0.2	0.71	.
21	COc1ccccc1N=C(C)C1=C(O)COC1=O	-6	6.9	0.4	.	.	.	.	.	0.67	-5
22	CCn1c(SCC(=O)N/N=C(/C)c2ccncc2)nc2ccccc21	-12	.	-0.7	i	-2	-4	0.9	-2.3	.	-6
23	CCOc1ccccc1/C=N/n1nnnc1N	-15	.	0.5	i	-3	2	-0.6	-0.1	.	-10
24	COc1ccc2c(c1OC)C(=O)OC2CC(=O)c1ccc(O)cc1 (centres undefined)	-7	1.6	0.2	.	.	.	.	.	0.65	2
25	O=C(CNc1cccc([N+](=O)[O-])c1)N/N=C/c1ccc(F)cc1	-2	.	0.6	i	24	17	31	-0.5	.	-6

Shown as a hit in Bfl-1 A1 inh, of those listed so far:
No. | SMILES | UCH37 DUB inh | Bfl-1 A1 inh | rRNA inh HTS | rRNA inh HTS OD600 | rRNA inh HTS RFP | AF4-AF9 inh
10 | COc1ccc2cc(C)c3nnc(SCC(=O)Nc4nc(-c5ccc(F)cc5)cs4)n3c2c1 | -2.3 | 16* | . | . | . | .

(list continues)
nr	SMILES	T cruzi inh	UCH37 DUB inh	Bfl-1 A1 inh	FGF22 binding	rRNA inh HTS	rRNA inh HTS OD600	rRNA inh HTS RFP	AF4-AF9 inh	E coli growth	Beta cell apopt
26	CCOC(=O)C(C)(C)N(Cc1cccc(C)c1)S(=O)(=O)c1cccc([N+](=O)[O-])c1	33	7.5	0.0	.	.	.	.	.	0.73	-4
27	CC1(C)Cc2c(cnn2-c2ccccc2)C(NC(=O)C2(C(N)=O)CC2)C1 (centres undefined)	-9	2.4	0.8	i	14	2	7.8	-8.9	0.7	-5
28	CCOC(=O)c1c2ccccc2[n+]([O-])n1CCO	-20	1.1	-0.8	i	6	17	5.6	-8.0	0.69	-2
29	CC(=O)c1ccc(OCC(C)C)c(CN2CCCCC2)c1	9	5.8	0.9	.	.	.	.	.	0.74	0
30	CC(C)C[C@H](NC(=O)N1CC(=O)Nc2ccccc21)C(=O)N[C@@H](Cc1c[nH]c2ccccc12)C(=O)O	-12	3.0	0.5	i	.	.	.	0.4	0.71	0
31	COC(=O)c1cc(CNC(=O)C(C)NS(=O)(=O)c2ccc(C)c(C)c2)ccc1OC (centres undefined)	12	4.1	0.4	i	6	9	1.8	-1.5	0.71	-5
32	Cc1nc2ccc(N=NC3=C(O)CC(C)(C)CC3=O)cc2s1	7	17	-0.1	.	.	.	.	.	0.69	-5
33	CC(=O)Nc1ccc(C(=O)Nc2ccc(S(=O)(=O)NCC3CCCO3)cc2)cc1 (centres undefined)	-1	0.3	-1.5	.	.	.	.	.	0.7	-5
34	CCc1ccc(N=C2NC(=O)/C(=C/c3cc(OC)c(O)c(OC)c3)S2)cc1	1	3.1	-0.4	i	2	3	2.4	8.6	0.63	3
35	CCCCCCn1c(CN2CCCCC2)nc2c1c(=O)n(C)c(=O)n2C	8	3.9	-0.4	.	.	.	.	.	0.71	2
36	COc1ccc(S(N)(=O)=O)cc1C(=O)NNC(=O)c1cccc(S(=O)(=O)N2CCOCC2)c1	.	3.7	.	i	9	11	0.6	5.6	0.71	.
37	NC(=O)Nc1ccc(C(=O)OCC(=O)Nc2sccc2C(N)=O)cc1	.	2.4	.	+	-10	-8	-1.1	-5.1	0.71	.
38	O=[N+]([O-])c1ccccc1S(=O)(=O)N1CCN(CC2CC=CCC2)CC1 (centres undefined)	21	0.0	0.2	.	-22	-21	8.7	5.2	0.67	.
39	COc1ccccc1NCC(O)Cn1c2ccccc2c2ccccc21 (centres undefined)	38	-5.3	-1.5	.	.	.	.	.	0.68	-1
40	CCOC(=O)Cn1cnc2c(nnn2-c2ccc(F)cc2)c1=O	-15	4.1	-0.2	i	0	8	-3.4	-7.5	0.8	-8
41	COC(=O)c1cccc(NC(=O)Cc2coc3cc(OC)ccc23)c1	1	3.1	-0.3	.	.	.	.	.	0.67	0
42	COc1ccc(/C=C/c2onc(C)c2S(=O)(=O)N2CCC(C(=O)N3CCC(C)CC3)CC2)cc1	23	-23	1.0	i	1	-12	3.0	-5.4	0.67	32
43	CNc1nc(CC(C)=O)ns1	5	0.3	1.7	.	.	.	.	.	0.68	-2
44	CC(C)C(CCN1C(=O)c2ccccc2C1=O)c1ccco1 (centres undefined)	8	5.7	0.2	.	.	.	.	.	0.69	1
45	O=C(N=C1SC2CS(=O)(=O)CC2N1c1ccc(F)cc1)C1CC1 (centres undefined)	-5	2.0	1.2	i	11	4	-1.9	-1.5	0.7	-9
46	O=C(CCNC(=O)c1ccccc1Cl)NN=Cc1ccccc1[N+](=O)[O-]	.	3.2	0.3	i	-9	1	-0.3	0.8	0.68	-3
47	Cc1ccc(C)c(Cn2c(C)nc3c(sc(=S)n3-c3ccccc3)c2=O)c1	12	6.5	0.5	i	7	4	1.8	-0.3	0.71	-3
48	CC[C@@]1(C(=O)OC)N[C@H](CN(C)C(=O)c2ccc(F)cc2)[C@@H]2C(=O)N(C)C(=O)[C@@H]21	.	3.7	.	i	4	16	5.8	-0.9	0.71	.
49	Cc1ccc(C(=O)Nc2nnc(C3CCCCC3)s2)o1	-3	2.2	-6.0	.	.	.	.	.	0.71	-3
50	Cc1cccc2cc(CN(CCN(C)C)C(=S)Nc3ccccc3)c(=O)[nH]c12	-6	2.7	0.1	.	.	.	.	.	0.71	1
51	CC(C)C1=Nc2cccc3cccc(c23)N1	-6	6.1	0.7	.	.	.	.	.	0.66	5
52	CC1CCCCN1C(=S)NC(=O)c1ccco1 (centres undefined)	.	1.7	0.3	i	6	5	-0.6	-6.6	0.67	-5
53	CCNc1ccc(Br)cc(C(=O)/C=C/c2ccc3c(c2)OCO3)c1=O	-1	4.2	1.6	.	.	.	.	.	0.77	-3
54	O=C(NCCCN1CCCC1=O)c1ccc(OCc2ccccc2)cc1	-2	4.3	0.8	.	.	.	.	.	0.68	4
55	O=C(Nc1ccncc1)c1cc(S(=O)(=O)N2CCCCC2)ccc1Cl	7	0.1	0.6	i	0	-5	2.2	-0.8	0.64	-13
56	C=CCOc1ccc(/C=C/C(=O)OCC(=O)NC2CCCCCC2)cc1	-18	-15	0.1	i	5	13	1.4	-1.5	0.69	0
57	COc1cc(C(=O)NCCC(=O)NC2CCCc3ccccc32)cc(OC)c1OC (centres undefined)	-16	2.3	-0.4	i	1	3	0.0	-1.8	0.68	0
58	CC(C)CN1C(=O)C(=O)N(CC(=O)N2CCN(c3ccccc3)CC2)C1=O	19	1.8	-0.6	i	9	2	0.8	2.3	0.69	-6
59	Cc1cc(C(=O)CSc2nn3c(=O)c(C(C)(C)C)nnc3s2)c(C)n1C	9	2.8	0.2	.	3	-4	1.9	-2.6	0.67	-2
60	O=C1/C(=C/c2ccccc2)SC(=S)N1CCCC(=O)N1CCCCC1CCO (centres undefined)	-1	6.1	-0.6	i	1	-1	2.4	3.2	0.64	-59
61	CC[C@@]12C(=O)N(c3cccc(F)c3)C(=O)N1[C@H](c1ccc(Cl)cc1)[C@@H]1C(=O)N(C3CCCCC3)C(=O)[C@@H]12	-7	3.7	-0.3	i	14	7	-8.9	2.8	.	-1
